Marburg entry inh: blocks Marburg virus binding to or entry into cells. hit rate 1.8% among 300,000. Marburg virus pseudotyped entry inhibition, cell reporter; control for the full effect not named in the record; about a third of the inactives were read at about 46 µM. Potency, µM (series often up to 37.8 µM), without a hit: at the highest dose activity change, negative = inhibition, actives largely listed as inhibitors; active = well fitted inhibition curve with a large enough effect; inconclusive = small, poorly fitted or top-dose-only effect, or effect the other way; inactive = flat fitted curve, though single readings scatter; tested in HEK293 cells; about a fifth of its hits are not listed in these tables; also: luciferase read-out
* marks the source's active call; other numbers are inactive results; ? = inconclusive; & = joins results of further samples; [ ] = dose if it differs, or a comment. % is scaled to controls: 0 for no effect and ±100 for the full control effect; potency is read from the fitted curve at half-maximal effect. These rows are one share of the data, so the mix of outcomes need not match the whole.

SMILES	Marburg entry inh
CC1(C)O[C@H]2O[C@H]([C@H](O)CO/N=C3/[C@H]4CCn5c(=O)n(-c6ccccc6)c(=O)n5[C@H]4[C@H](O)[C@@H]4O[C@H]34)[C@H](O)[C@H]2O1	?
N#Cc1ccc2c(c1)C[C@]1(c3ccsc3)Oc3c(c(=O)oc4ccccc34)[C@H]2O1	5.3%[14.2 µM]
CN1C(=O)[C@]2(c3ccccc31)[C@H]1CCCC=C1C(C#N)=C(N)C2(C#N)C#N	-5.9%
CC(=O)OC[C@H]1O[C@H](C#Cc2ccccc2)C=C[C@H]1O	-3.2%[14.2 µM]
CN1C(=O)N=C2N=CN(C)C2C1=O (stereo not drawn)	4.5%
COC(=O)C1(C(=O)OC)C[C@@H]2CON=C2[C@@H]1c1ccccc1	?
COC(=O)N1C2CC3(C)C=C(C)OC1(C)C3c1ccccc12 (stereo not drawn)	?
O=C1O[C@H](Nc2ccc(Br)cn2)c2ccccc21	5.1%
C=CCN1c2ccccc2[C@]23C[C@@H](C(=O)OC)N(C(=O)Nc4ccccc4F)C2=NC(C(=O)OC)=C(C(=O)OC)[C@H]13	2.9%[14.2 µM]
COc1cccc([C@@H]2Oc3ccc(Br)cc3C(=O)[C@@H]2OC(=O)N[C@H]2CCCc3ccccc32)c1	-11.4%[14.2 µM]
COc1cc2c(cc1OC)[C@@H]1O[C@](c3ccsc3)(C2)Oc2cc(C)n(Cc3ccccc3)c(=O)c21	-14.3%[14.2 µM]
CCCNC(=O)OC[C@H]1O[C@H](CCO/N=C(\C)CCC(=O)OC[C@H]2O[C@H](C#Cc3ccccc3)C=C[C@@H]2Oc2ccc(C)cc2)C=C[C@@H]1Oc1ccc(OC)cc1	-28.6%[14.2 µM]
COC(=O)[C@@H]1[C@@H](c2ccccc2)NC(=O)N(CCc2cc(OC)c(OC)c(OC)c2)[C@@H]1C	-31.0%[14.2 µM]
O=C(/C=N/O)NCCCCNC(=O)/C=N/O	?
CCCCC(=O)/C=C/n1c2c(oc1=S)CCCC2	17.8µM*

Structural class, those above containing bromine (2)
SMILES	Marburg entry inh
O=C1O[C@H](Nc2ccc(Br)cn2)c2ccccc21	5.1%
COc1cccc([C@@H]2Oc3ccc(Br)cc3C(=O)[C@@H]2OC(=O)N[C@H]2CCCc3ccccc32)c1	-11.4%[14.2 µM]

Back to the main list, starting 5 compounds before the break.
SMILES	Marburg entry inh
COc1cc2c(cc1OC)[C@@H]1O[C@](c3ccsc3)(C2)Oc2cc(C)n(Cc3ccccc3)c(=O)c21	-14.3%[14.2 µM]
CCCNC(=O)OC[C@H]1O[C@H](CCO/N=C(\C)CCC(=O)OC[C@H]2O[C@H](C#Cc3ccccc3)C=C[C@@H]2Oc2ccc(C)cc2)C=C[C@@H]1Oc1ccc(OC)cc1	-28.6%[14.2 µM]
COC(=O)[C@@H]1[C@@H](c2ccccc2)NC(=O)N(CCc2cc(OC)c(OC)c(OC)c2)[C@@H]1C	-31.0%[14.2 µM]
O=C(/C=N/O)NCCCCNC(=O)/C=N/O	?
CCCCC(=O)/C=C/n1c2c(oc1=S)CCCC2	17.8µM*
CSc1nnc(C(C)(C)C)c(=O)n1N/C=C1\C(=O)CCC2=C1CCCC2	3.1%[46.1 µM]
O=C(O)[C@@H]1CC(=O)n2c(nc3ccccc32)S1	0.8%
O=C1[C@H]2[C@H]3[C@H](O)[C@H](O)C/C(=N/OC[C@@H](O)COCc4ccco4)[C@H]3CC[C@@H]2C(=O)N1C1CCCCC1	-22.0%[14.2 µM]
O=C1CCCC2=C1[C@H]1O[C@](CCCCN3C(=O)c4ccccc4C3=O)(Cc3ccccc31)O2	-1.7%[14.2 µM]
COc1ccc(N[C@H]2CC(=O)N(C)C2=O)cc1	4.2%
COC[C@@H](O)[C@H]1OCc2ccccc2[C@H]1C=Cc1ccccc1	6.8%[14.2 µM]
CCOC(=O)C1NC2CCC(OCC)CC2C1CCCN1C(=O)C2=C(CCCC2)C1=O (stereo not drawn)	-4.3%
CCC[C@H]1CN(c2ccc(Br)cc2)C(=O)[C@H]1CC(=O)Nc1ccccc1	?
CCCNC(=O)OC[C@H]1O[C@H](CCON=C(C)CCN2CCCCc3nc(C)c(C)cc32)C=C[C@H]1Oc1ccc(OC)cc1	-26.3%[14.2 µM]
O=C1CCC2CCCCC2O1 (stereo not drawn)	-0.5%
COC(=O)C1(C(=O)OC)Cc2conc2[C@@H]1c1ccccc1	-10.3%&-1.5%[14.2 µM]
Fc1ccccc1-c1nc(-c2ccccc2)oc1NCc1ccccc1	0.7%[14.2 µM]
COc1ccc2c(c1)O[C@H](c1cccc(C(F)(F)F)c1)[C@@H](O)C2=O	-33.2%[14.2 µM]
CC(C=CC1=C(C)CCCC1(C)C)=CC=CC(C)=CC(=O)Nc1ccc(O)cc1	?
CCCCCCCC1=Cc2ccccc2C(C(C(C)=O)C(=O)OC)N1C(=O)OC (stereo not drawn)	-4.7%&-4.7%[14.2 µM]
Nc1nc2n(n1)[C@@H](c1cccs1)C[C@H](c1ccc(F)cc1)N2	-0.6%
COC1CCC(C2CC(=O)C3=C(CCCC3)O2)CC1 (stereo not drawn)	44.4%
O=C1N(Cc2ccccc2C(F)(F)F)c2ccccc2[C@@]12O[C@H](COc1ccccc1)CC1=C2CCC1	-23.5%[14.2 µM]
COc1cc(CO[C@H]2C=C[C@@H](c3ccccc3)O[C@H]2CO)cc(OC)c1	?
O=C(C1=C(O)CCCC1)N1CCOCC1	20.3%[46.1 µM]
O=C1[C@H]2[C@H]3[C@H](O)[C@H](O)C/C(=N/OCc4ccccc4)[C@H]3CC[C@@H]2C(=O)N1Cc1ccc2c(c1)OCO2	-37.8%[14.2 µM]
COc1cc(O)c(C(=O)C=Cc2ccc3c(c2)OCO3)c(OC)c1	?
CC(C)CO/N=C1/C[C@@H](O)[C@@H](O)[C@@H]2[C@@H]3C(=O)N(c4cccc(Oc5ccccc5)c4)C(=O)[C@H]3CC[C@@H]12	-1.1%[14.2 µM]
COc1cccc(OC)c1OC[C@H](C)CNC[C@@H]1CCCO1	-13.3%
COC(=O)NC(C=Cc1ccccc1)C(C(C)=O)C(=O)OC (stereo not drawn)	?
O=C(NCC1CCCO1)C1=CC2=NC(=S)N(c3ccccc3)C(=O)C2C=C1 (stereo not drawn)	-14.0%
CC(C)C1CCCCC1NC(=O)CN1C(=O)C2=C(CCCC2)C1=O (stereo not drawn)	-0.9%[46.1 µM]
CCCOc1ccc(CS[C@@H](CC(=O)O)C(=O)O)cc1	16.7%
CC(C)(C)[S+](=O)([O-])/C(C#N)=C/NC1=NCCCC1	-10.6%[46.1 µM]
CCN(CC)CCCN1C(=O)C(O)=C(C(=O)c2ccc(C)o2)[C@@H]1c1ccc(C)o1	8.0%
C=CCN(C)C1=NC(c2ccccc2)C(C(=O)OC)=C(C)N1CCOC (stereo not drawn)	3.8%[14.2 µM]
COC(=O)N1C2CC(=O)O[C@H]3c4cc5c(cc4[C@]1(C)[C@@]3(Br)c1ccccc12)OCO5	7.6%[14.2 µM]
CC1=C(Br)C2=C(CC1)NC(=O)/C2=N\N1C(=O)C2CCCCC2C1=O (stereo not drawn)	-17.8%
Cc1noc(COc2ccccc2OC[C@H](O)CNC(C)(C)C)n1	-7.5%
CC(=O)OC[C@H]1O[C@H](C#CC2=CCCCC2)C=C[C@@H]1OC(C)=O	?
C=CCC12OC3(OC)CC1[C@H](C)[C@@H](c1ccccc1)C2[C@@]3(C)O (stereo partly drawn)	0.3%[14.2 µM]
CCN1C(=O)NC(c2cccc(F)c2)C(C(=O)OC)=C1C (stereo not drawn)	19.3%[14.2 µM]
O=C(O)[C@H](Cc1c[nH]c2ccccc12)NS(=O)(=O)c1cccc2nsnc12	11.0%
COc1ccc([C@]23Cc4c(ccc5ccccc45)[C@H](O2)C2=C(CCCC2=O)O3)cc1	-21.5%[14.2 µM]
C[C@@H]1N[S+](=O)([O-])c2cccc(Cl)c2O[C@H]1c1ccccc1	?
COC[C@H]1O[C@@H]2O[C@@H]1[C@@H](C=Cc1ccccc1)C[C@H]2C	5.3%[14.2 µM]
CCN1C(=O)NC(c2ccc(Br)cc2)C(C(=O)OC)=C1C (stereo not drawn)	?
C#CCSC1=C(C#N)[C@@H](c2cccs2)C(C(=O)OCC)=C(C)N1	-0.4%
CC(=O)[C@@]12C3[C@@H](CCN3C(=O)N[C@H]1c1ccccc1)[C@H]2c1ccccc1 (stereo partly drawn)	20.6%[14.2 µM]
O=C1[C@H]2[C@H]3[C@H](O)[C@H](O)C/C(=N/OC[C@@H](O)COCc4ccco4)[C@H]3CC[C@@H]2C(=O)N1C[C@@H]1CCCO1	-0.9%[14.2 µM]
CCN1C(=O)NC(CCc2ccccc2)C(C(C)=O)=C1C (stereo not drawn)	-8.9%[14.2 µM]
CCCCCC(=O)N1C[C@@H](n2cc(COC(=O)c3ccccc3)nn2)[C@H](O)C[C@H]1c1ccc(Cl)cc1	?
O=C1c2ccccc2C(O)(C2N=CC=N2)N1CCc1ccccc1 (stereo not drawn)	10.3%
CC(C)CO/N=C1/C[C@@H](O)[C@@H](O)[C@@H]2[C@@H]3C(=O)N(C4CCCCC4)C(=O)[C@H]3CC[C@@H]12	-13.9%[14.2 µM]
O=C(O)[C@@H]1CSCN1S(=O)(=O)c1cccc2nsnc12	-0.7%
COC(=O)[C@]1(CC=Cc2ccccc2)C=C[C@@H](C)[C@H](c2ccccc2Br)N1C(=O)C(F)(F)F	12.9%[14.2 µM]
CCCCNC(=O)c1cc2n(n1)[C@@H](C(F)(F)F)C[C@H](c1ccccc1)N2	-18.8%
C[C@@H]1[C@@H](c2ccccc2)Cc2nc3ccccc3nc2C[C@H]1C(=O)N1CCCC1	-14.8%[14.2 µM]
C=C1[C@@H]2CCN3C(=O)N[C@@H](c4ccccc4)[C@@]1(C(=O)OCC)C23 (stereo partly drawn)	?
Cc1c(C)c2cc(Cl)c(O)c(CN3CCC[C@@H](C)C3)c2oc1=O	0.5%
COC(=O)C1=C(C)N(Cc2ccccc2)C(=NCCc2c[nH]c3ccccc23)NC1c1ccc(Br)cc1 (stereo not drawn)	?
CCC(=O)C[C@@H](NC(=O)OC)c1ccc(F)cc1	6.0%[14.2 µM]
c1ccc(CCc2nc(-c3ccccc3)oc2Nc2ccc3ccccc3c2)cc1	?
CC1=C2[C@H](O)[C@H]([C@@H](C)C(=O)NCCC(C)C)CC[C@@]2(C)C=CC1=O	23.2%[14.2 µM]
COC(=O)N1C(c2ccccc2)=Cc2ccccc2C1CC(C)=O (stereo not drawn)	0.2%&0.2%[14.2 µM]

(cont.)
SMILES	Marburg entry inh
CC(=O)OC[C@H]1O[C@H](CC=NO[C@@H](C)c2cc(-c3c(C)cc(C)cc3C)no2)C=C[C@@H]1OC(C)=O	-2.6%[14.2 µM]
CN1C(=O)C2=NC(C3CCCC3)=NC2N(C)C1=O (stereo not drawn)	68.1%
CCN(CC)CCN1C(=O)C(=O)/C(=C(/O)c2c(C)[nH]c(C(=O)OC)c2C)[C@@H]1c1cccc(OC)c1	24.0%
CCN1C(=O)N(S(=O)(=O)c2ccc(C)cc2)C(c2ccccc2)C(C(=O)OC)=C1C (stereo not drawn)	17.0%[14.2 µM]
CCOC(=O)N/N=C1/C[C@@H](O)[C@@H](O)[C@@H]2[C@@H]3C(=O)N(CC)C(=O)[C@H]3CC[C@H]12	7.5%[14.2 µM]
COCc1[nH]nc2c1[C@@H](c1cccc(OC)c1)C(C#N)=C(N)O2	-2.7%
C=CCOC(=O)C1=C(C)NC(SCC(=O)Nc2ccc(C)c(Cl)c2)=C(C#N)[C@@H]1c1ccco1	10µM*
CCN1C(=O)[C@H]2[C@H]3C(=CC[C@@H]2C1=O)C1(OCCCO1)[C@@H]1O[C@H]1[C@H]3O	?
C(=Cc1nc(-c2ccccc2)oc1Nc1ccc2ccccc2c1)c1ccccc1	?
O=C1[C@H]2[C@@H]3[C@@H](O)[C@H](O)CC(=NOCc4ccccc4)[C@@H]3CC[C@H]2C(=O)N1C[C@@H]1CCCO1	6.1%[14.2 µM]
C=CCNC(=O)[C@H]1C=C(OC)C(=O)C[C@H]2c3ccccc3C[C@]12C	-22.5%[14.2 µM]
C=CC[C@@H]1C=CC(ON=CC[C@@H]2C=C[C@@H](OC(C)=O)[C@@H](COC(C)=O)O2)[C@H](CO)O1 (stereo partly drawn)	4.2%[14.2 µM]
CCO[C@H](c1cc(OC)cc([N+](=O)[O-])c1OC)[C@H](C)[C@@H](OC)[C@H](C)C=CCC(=O)OC	1.2%[14.2 µM]
COc1ccc(C(=O)[C@@H]2CCCCC2=O)cc1	23.9%
COC(=O)c1cc(C(=O)OC)n2c(C)cc3ccccc3c12	13.0%[14.2 µM]
CCC[C@@H]1Cc2c(sc3ncnc(N)c23)CO1	17.6%
COc1ccc([C@]23Cc4cc(OC)c(OC)cc4[C@H](O2)c2c(cc(C)oc2=O)O3)cc1	?
CN1[C@@H]2CC[C@H]1CC(NC(=O)c1nn(C)c3ccccc13)C2 (stereo partly drawn)	12.3%
CCCCc1nc2c(c3c1C[C@H](C)OC3)CN(C(=O)c1cccnc1)CC2	?
Cn1cc(Cl)nc1[C@@H](O)c1ccccc1	27.6%
CCOC(=O)NN=C1C[C@@H](O)[C@@H](O)[C@@H]2[C@H]3C(=O)N([C@@H](C)c4ccccc4)C(=O)[C@@H]3CC[C@@H]12	-22.4%[14.2 µM]
Cc1cc(F)ccc1O[C@H]1C=C[C@@H](c2ccc3c(c2)OCO3)O[C@H]1CO	14.2%[14.2 µM]
